# Assay outcomes from PubChem.
# KCNQ2 enhance = KCNQ2 (rat) channel potentiation | O88943 | CHO-K1 KCNQ2, FluxOR thallium flux fluorescence; active compounds read high | B-score at 10 µM | 0.54% of 310,000 active | AID 2239;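 active = fluorescence ratio B-score at least 3 SD of library B-scores, with initial fluorescence B-score within 3 SD, cut at about 5.3 in these data; same plate scores as AID 2156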;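 note: B-score of peak minus minimum over baseline fluorescence ratio after K+ and Tl+ stimulus; positive B-score means potentiation of KCNQ2 with more thallium influx and brighter signal; only the inactives scoring about 0 or higher are listed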
# Target sequence (O88943 whole entry, looked up): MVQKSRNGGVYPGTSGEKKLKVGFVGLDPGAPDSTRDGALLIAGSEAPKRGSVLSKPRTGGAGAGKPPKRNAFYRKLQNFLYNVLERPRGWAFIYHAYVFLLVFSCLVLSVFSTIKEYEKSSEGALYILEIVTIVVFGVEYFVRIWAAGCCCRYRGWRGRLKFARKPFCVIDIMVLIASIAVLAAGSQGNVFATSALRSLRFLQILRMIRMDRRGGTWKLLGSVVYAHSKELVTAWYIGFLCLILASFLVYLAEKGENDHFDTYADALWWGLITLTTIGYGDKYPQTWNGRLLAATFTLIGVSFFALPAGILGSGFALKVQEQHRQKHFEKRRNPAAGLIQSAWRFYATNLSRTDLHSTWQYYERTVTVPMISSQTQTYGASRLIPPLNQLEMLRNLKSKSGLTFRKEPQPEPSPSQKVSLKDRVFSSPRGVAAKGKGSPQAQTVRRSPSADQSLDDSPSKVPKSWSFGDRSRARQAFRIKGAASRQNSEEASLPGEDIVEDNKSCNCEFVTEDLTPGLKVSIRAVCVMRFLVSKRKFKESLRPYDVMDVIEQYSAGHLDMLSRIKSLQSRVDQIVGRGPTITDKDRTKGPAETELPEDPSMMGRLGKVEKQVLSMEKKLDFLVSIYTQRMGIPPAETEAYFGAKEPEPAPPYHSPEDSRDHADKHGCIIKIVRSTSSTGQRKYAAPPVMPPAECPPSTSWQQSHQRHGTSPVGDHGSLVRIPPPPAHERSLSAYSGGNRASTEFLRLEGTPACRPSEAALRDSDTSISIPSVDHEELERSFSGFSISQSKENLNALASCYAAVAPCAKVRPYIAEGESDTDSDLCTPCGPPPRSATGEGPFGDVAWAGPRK
# KCNQ2 enhance baseline = second read-out of KCNQ2 enhance, no call of its own (marks repeat the call); B-score; compound at 10 µM; measured here: initial fluorescence intensity artifact check;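 brightness before thallium and not channel activity; 0 = typical well and far values either way flag optical interference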
# * marks the source's active call; other numbers are inactive results. Some of the compounds tested; rates above refer to the full screens.
1) CC(C)[C@H](NC(N)=O)C(=O)NNC(=O)COc1cccc(C(F)(F)F)c1
2) Cc1ccc(NC(=O)c2cc(S(=O)(=O)N3CCOCC3)ccc2F)c(C)c1
3) CCOc1ccc(N(CC(=O)Nc2ccc(OC)cc2)C2=NC3CS(=O)(=O)CC3S2)cc1 (stereo unspecified)
4) O=C(COc1coc(CN2CCc3ccccc32)cc1=O)Nc1cccc(F)c1
5) Cc1ccc(S(=O)(=O)c2cn(C)c3cc(N4CCOCC4)c(F)cc3c2=O)cc1
6) COc1ccc(OCC(=O)N2CCc3c([nH]c4ccccc34)C2c2ccccn2)cc1 (stereo unspecified)
7) Cc1c(C)n(C)c2ccc(C(=O)NCCCN3CCCCC3)cc12
8) O=C(Nn1cnnc1)c1ccc([N+](=O)[O-])cc1Cl

Assay by compound | 1 | 2 | 3 | 4 | 5 | 6 | 7 | 8
KCNQ2 enhance | 0.08 | 0.4 | 1.8 | 0.15 | 1.31 | 1.13 | 1.22 | 0.44
KCNQ2 enhance baseline | 1.79 | 0.94 | 0.36 | 0.79 | 0.14 | -0.03 | -0.67 | 1.83

9) Cc1cccc(NC(=O)Nc2ccccn2)c1C
10) Cc1c(NC(=O)CSc2nc3ccccc3[nH]2)c(=O)n(-c2ccccc2)n1C
11) O=C(Nc1ccc2c(c1)OCCO2)c1ccc(S(=O)(=O)N2CCCCC2)cc1
12) CC(=O)c1cc(C(=O)Nc2ccccc2C(=O)O)oc1C
13) O=C(O)CCN1C(=O)c2ccc(NC(=O)C(c3ccccc3)c3ccccc3)cc2C1=O
14) O=C1C=C(Nc2ccccc2)CC(c2ccccc2)C1 (stereo unspecified)
15) Cc1nc(NC(=O)c2oc3ccccc3c2C)sc1C(=O)N(C)C
16) O=C(CCC(=O)N1CCOc2ccccc21)NCCN1CCOCC1

Assay by compound | 9 | 10 | 11 | 12 | 13 | 14 | 15 | 16
KCNQ2 enhance | 1.61 | 0.73 | 0.46 | 0.67 | 0.4 | 0.32 | 3.59 | 0.02
KCNQ2 enhance baseline | -0.54 | -0.41 | -1.08 | -0.41 | 0.68 | -0.45 | -0.16 | 0.12

17) CCNC(=S)N/N=C/c1ccc(OCC(=O)Nc2ccc(OC)cc2)c(OC)c1
18) CSc1ncccc1C(=O)OCc1ccc(C#N)cc1
19) CC(C)(C)OC(=O)NCCc1nnc(SCC(N)=O)o1
20) CCCCn1c(=O)cc(C)n(-c2ccccc2)c1=O
21) CCCCc1cc(=O)oc2cc(C)cc(OC(C)C(=O)NCC3CCC(C(=O)O)CC3)c12 (stereo unspecified)
22) COc1ccc(N(C(=O)c2snc(C(N)=O)c2N)C(C(=O)NCC2CCCO2)c2ccc3ncccc3c2)cc1OC (stereo unspecified)
23) CCN(CC)C(=O)CSc1nc2ccccc2o1
24) COCC(O)CSc1nc(C)[nH]c1[N+](=O)[O-] (stereo unspecified)

Assay by compound | 17 | 18 | 19 | 20 | 21 | 22 | 23 | 24
KCNQ2 enhance | 0.55 | 1.16 | 0.12 | 0.05 | 0.11 | 1.45 | 0.09 | 0.96
KCNQ2 enhance baseline | -0.33 | 0.69 | -0.89 | 0.11 | -1.49 | -0.02 | 0.37 | -2.98

25) O=C(NCCN1CCOCC1)c1nn2c(c1Cl)NC(c1ccccc1)CC2C(F)(F)F (stereo unspecified)
26) Cn1c(=O)c2c(nc(-n3ccnc3)n2C)n(C)c1=O
27) FC(F)(F)c1cc(Sc2ccccc2)nc(-c2ccccn2)n1
28) CCOc1ccc2nc(NCCNC(=O)C3CC3)c(C)cc2c1
29) Cc1ccc(-c2cc(-c3cccc(F)c3)n[nH]2)c(O)c1
30) CCS(=O)(=O)Nc1ccc(C(=O)OC)cc1
31) CCN(CC)C(=O)CSc1nc2ccccc2c(=O)n1CCC(=O)NCc1ccc(F)cc1
32) C[C@H](NC(=O)c1nc[nH]c1C(=O)NCCCCCN)C(=O)OCc1ccccc1

Assay by compound | 25 | 26 | 27 | 28 | 29 | 30 | 31 | 32
KCNQ2 enhance | 0.54 | 0.97 | 1.48 | 0.47 | 0.46 | 1.31 | 0.33 | 1.21
KCNQ2 enhance baseline | 1.99 | -0.88 | 1.03 | 0.57 | 1.91 | 0.91 | -0.42 | -0.82

# Single entries from the list.
# FC(F)(F)c1cc(Sc2ccccc2)nc(-c2ccccn2)n1 @ KCNQ2 enhance: 1.48
# Cn1c(=O)c2c(nc(-n3ccnc3)n2C)n(C)c1=O @ KCNQ2 enhance: 0.97
# Cc1ccc(-c2cc(-c3cccc(F)c3)n[nH]2)c(O)c1 @ KCNQ2 enhance: 0.46
# CCS(=O)(=O)Nc1ccc(C(=O)OC)cc1 @ KCNQ2 enhance: 1.31
# CCOc1ccc2nc(NCCNC(=O)C3CC3)c(C)cc2c1 @ KCNQ2 enhance baseline: 0.57
# CCN(CC)C(=O)CSc1nc2ccccc2c(=O)n1CCC(=O)NCc1ccc(F)cc1 @ KCNQ2 enhance: 0.33
# O=C(NCCN1CCOCC1)c1nn2c(c1Cl)NC(c1ccccc1)CC2C(F)(F)F (stereo unspecified) @ KCNQ2 enhance: 0.54

# Next compounds follow.
33) O=C(Nc1ccc(S(=O)(=O)Nc2ncccn2)cc1)C1=NN(c2ccccc2)C(=O)CC1
34) O=C(Nc1ccc(OCC(F)(F)C(F)F)cc1)c1ccncc1
35) CCOc1ccc(Cl)cc1CNCCNCC(C)O (stereo unspecified)
36) CC1=C(C(=O)N2CCCC(C(=O)c3cccc(C(F)(F)F)c3)C2)OCCO1 (stereo unspecified)
37) O=C(Cc1c(C(=O)O)[nH]c2ccccc12)Nc1ccc2c(c1)OCO2
38) CC(=O)c1nn(-c2ccccc2)cc1C(=O)c1ccc(Br)cc1
39) CC1(C)CN(c2ccc(N3CC(C)(C)C3=O)cc2)C1=O
40) Cc1ccc(CNC(=O)C2CCC(=O)N(CCc3ccc(Cl)cc3)C2)s1 (stereo unspecified)

Assay by compound | 33 | 34 | 35 | 36 | 37 | 38 | 39 | 40
KCNQ2 enhance | 1.38 | 1.98 | 2.4 | 0.87 | 0.54 | 0.3 | 1.74 | 0.03
KCNQ2 enhance baseline | -0.93 | 0.07 | -1.97 | 0 | -0.3 | 0.58 | -1.07 | 0.58

# Part of the list above in a different format:
# Values run as follows: KCNQ2 enhance, KCNQ2 enhance baseline
35) CCOc1ccc(Cl)cc1CNCCNCC(C)O (stereo unspecified)
    2.4, -1.97
36) CC1=C(C(=O)N2CCCC(C(=O)c3cccc(C(F)(F)F)c3)C2)OCCO1 (stereo unspecified)
    0.87, 0
37) O=C(Cc1c(C(=O)O)[nH]c2ccccc12)Nc1ccc2c(c1)OCO2
    0.54, -0.3
38) CC(=O)c1nn(-c2ccccc2)cc1C(=O)c1ccc(Br)cc1
    0.3, 0.58

# Returning to the listing with the four entries that preceded the break.
37) O=C(Cc1c(C(=O)O)[nH]c2ccccc12)Nc1ccc2c(c1)OCO2
38) CC(=O)c1nn(-c2ccccc2)cc1C(=O)c1ccc(Br)cc1
39) CC1(C)CN(c2ccc(N3CC(C)(C)C3=O)cc2)C1=O
40) Cc1ccc(CNC(=O)C2CCC(=O)N(CCc3ccc(Cl)cc3)C2)s1 (stereo unspecified)
41) CC(=O)NC(C(=O)N1CCC(c2nc3ccccc3s2)CC1)C(C)C (stereo unspecified)
42) Cc1ccc(Nc2nnc(SC3CCOC3=O)s2)c(C)c1 (stereo unspecified)
43) CC(C)CCNc1cc(=O)n(C)c(=O)n1C
44) C=CCSc1nnc(NC(=O)c2ccc(S(=O)(=O)NCC3CCCO3)cc2)s1 (stereo unspecified)
45) O=C(CSc1nnc(Cc2ccccc2)o1)NCc1ccc2c(c1)OCO2
46) COC(C[C@@H](O)C[C@H](O)[C@H](C)OCc1ccccc1)OC
47) COc1ccc(-c2c(C)oc3c(CN4CCCC(C)C4)c(O)ccc3c2=O)cc1OC (stereo unspecified)
48) CC(C)NC(=O)C1CC(=O)N(c2ccc(F)c(Cl)c2)C1 (stereo unspecified)

Assay by compound | 37 | 38 | 39 | 40 | 41 | 42 | 43 | 44 | 45 | 46 | 47 | 48
KCNQ2 enhance | 0.54 | 0.3 | 1.74 | 0.03 | 0.08 | 0.88 | 0.27 | 0.98 | 0.44 | 2.15 | 0.92 | 1.2
KCNQ2 enhance baseline | -0.3 | 0.58 | -1.07 | 0.58 | 0.85 | -0.01 | 0.02 | -0.56 | -0.44 | 0.07 | 0.54 | -1.27

49) O=C1CCCC/C1=C\Nc1ccc(O)cc1
50) CC(C)CC(NC(N)=O)C(=O)Nc1ccc(Cl)c(Cl)c1 (stereo unspecified)
51) C[C@@H](C(=O)NC1CCCC1)N1C(=O)N2CCc3c([nH]c4ccccc34)[C@@]2(C)C1=O
52) COC(=O)COc1ccc(C2NC(=O)NC(c3ccccc3)=C2C(C)=O)cc1OC (stereo unspecified)
53) COc1ccc(CCNC(=O)C(=O)NCCC2CCCCN2S(=O)(=O)c2ccccc2)cc1 (stereo unspecified)
54) O=C1NC2(CCCCCC2)N=C1c1ccc(Br)cc1
55) CC(=O)c1cccc(NC(=O)CCOc2ccccc2)c1
56) CCNc1cc(Cl)nc(SC)n1

Assay by compound | 49 | 50 | 51 | 52 | 53 | 54 | 55 | 56
KCNQ2 enhance | 1.23 | 2.02 | 0.02 | 1.48 | 0.53 | 1.03 | 0.01 | 1.63
KCNQ2 enhance baseline | 1.91 | -1.45 | 0.32 | -0.45 | 0.1 | -0.03 | -0.01 | -0.97

57) CCN(CC(=O)NCc1ccc(F)cc1)C(=O)c1cccnc1SC
58) C[C@@H]1CN(C2CCN(Cc3nc(CC4CC4)no3)CC2)C[C@H](C)O1
59) CC(NC(=O)c1ccc(F)cc1)C(c1cccs1)N1CCN(C)CC1 (stereo unspecified)
60) Cc1ccc(C)c(C(=O)COC(=O)CCCC(=O)Nc2cc(C(F)(F)F)ccc2Cl)c1
61) COc1ccc(/C=N/NC(=O)c2cccs2)c2ccccc12
62) CCOC(=O)c1[nH]c2ccc(C(=O)OC)cc2c1C(=O)OCC
63) Cc1sc(NC(=O)C2CCCO2)c(C(N)=O)c1C (stereo unspecified)
64) COc1cc(/C=C2/C(=N)N3C(=NC2=O)SN=C3S(C)(=O)=O)ccc1OS(=O)(=O)c1ccc(C)cc1
65) Cc1ccc(S(=O)(=O)Nc2c(C(=O)O)[nH]c3ccccc23)c(C)c1
66) O=C(c1cc(-c2ccc(Br)cc2)on1)N1CCc2ccccc2C1
67) N=c1sccn1CC(=O)Nc1cc(Cl)ccc1Oc1ccccc1

Assay by compound | 57 | 58 | 59 | 60 | 61 | 62 | 63 | 64 | 65 | 66 | 67
KCNQ2 enhance | 2.31 | 0.21 | 0.27 | 0.03 | 0.78 | 0.08 | 0.69 | 0.89 | 0.36 | 0.32 | 0.94
KCNQ2 enhance baseline | -0.43 | 0 | -0.41 | -1.19 | 0.77 | -0.07 | 0.04 | -0.43 | 0.98 | 0.3 | -1.45

# In a second layout: two of the compounds above.
# Results follow in this order: KCNQ2 enhance | KCNQ2 enhance baseline
64. COc1cc(/C=C2/C(=N)N3C(=NC2=O)SN=C3S(C)(=O)=O)ccc1OS(=O)(=O)c1ccc(C)cc1
    0.89 | -0.43
65. Cc1ccc(S(=O)(=O)Nc2c(C(=O)O)[nH]c3ccccc23)c(C)c1
    0.36 | 0.98
